Mtb MenB inh: M. tuberculosis MenB inhibitors, primary screen, biochemical, absorbance | 1,4-dihydroxy-2-naphthoyl-CoA synthase (Mycobacterium tuberculosis (strain ATCC 25618 / … | MenB enzyme assay, absorbance read-out; some hits fall short of the stated cut | inhibition, %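 (about 12 µg/mL by stock and volumes)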 | actives 0.43% (n = 100,000);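 active = mean of two replicates above 30%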;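 also: 0% = no compound and 100% = wells with inactive enzyme; the first replicate is given; strong numbers were not always called active; inactives centre near -10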
Target sequence (P9WNP5 whole entry, looked up): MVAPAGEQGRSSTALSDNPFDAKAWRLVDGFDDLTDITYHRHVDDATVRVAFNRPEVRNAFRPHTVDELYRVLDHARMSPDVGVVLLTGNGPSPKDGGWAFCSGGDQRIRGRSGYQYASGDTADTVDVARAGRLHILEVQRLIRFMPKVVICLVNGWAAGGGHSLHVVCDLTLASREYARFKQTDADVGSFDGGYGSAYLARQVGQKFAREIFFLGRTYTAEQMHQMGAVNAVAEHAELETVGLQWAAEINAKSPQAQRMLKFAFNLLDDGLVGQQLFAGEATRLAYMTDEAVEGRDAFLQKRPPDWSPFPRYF
PV pol inh: poliovirus RdRp elongation inhibitors, primary screen, biochemical, fluorescence polarization, total intensity; Genome polyprotein (Poliovirus type 1 (strain Mahoney)), P03300; poliovirus polymerase elongation; active compounds read low; % elongation, % (compound at 16.7 µg/mL); actives 0.66% (n = 150,000); AID 588519, 2011; in the data active = % elongation below about 90%; also: some results filed as inactive read as strong as hits
Target sequence (P03300 1749-2209 limits assumed): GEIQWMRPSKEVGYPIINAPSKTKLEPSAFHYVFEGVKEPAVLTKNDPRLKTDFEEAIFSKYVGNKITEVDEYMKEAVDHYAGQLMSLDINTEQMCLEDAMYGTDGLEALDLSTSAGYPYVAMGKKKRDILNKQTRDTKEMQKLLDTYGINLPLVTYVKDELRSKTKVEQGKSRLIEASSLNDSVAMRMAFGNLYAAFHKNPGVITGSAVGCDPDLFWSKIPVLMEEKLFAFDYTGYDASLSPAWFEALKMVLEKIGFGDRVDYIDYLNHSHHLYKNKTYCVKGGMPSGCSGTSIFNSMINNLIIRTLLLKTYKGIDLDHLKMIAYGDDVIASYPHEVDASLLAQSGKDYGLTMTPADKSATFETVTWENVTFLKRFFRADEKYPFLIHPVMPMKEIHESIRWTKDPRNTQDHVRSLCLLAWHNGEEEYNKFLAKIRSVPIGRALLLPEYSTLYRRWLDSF
MbtI inh: MbtI salicylate synthase inhibitors, primary screen, biochemical, fluorescence intensity | P9WFX0 | purified MbtI enzyme, fluorescence intensity read-out | inhibition, %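 (about 17 µg/mL by stock and volumes)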 | actives 0.89% (n = 100,000);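 active = above 50% in both replicates, above 80% if mildly self-fluorescent; inactive = the rest, strongly fluorescent compounds included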;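 also: 0% = mean of negative and 100% = mean of positive controls; one replicate is shown; some compounds called inactive have numbers as strong as hits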
PV pol inh intensity: also measured in PV pol inh; calls as there; % elongation; measured here: total intensity read-out; formula for this scale not given here;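 total fluorescence in place of polarization; lower means less elongation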
Active calls of the source: *; x = not tested or not shown.

SMILES | Mtb MenB inh | PV pol inh | PV pol inh intensity | MbtI inh
CC(C)CC(C(=O)O)N1C(=O)c2ccccc2C1=O (configuration not stated) | 8 | 99 | 101 | 0
CC(C)C(NS(=O)(=O)c1ccc2c3c(cccc13)C(=O)N2C)C(=O)O (configuration not stated) | -38 | 99 | 101 | 2
O=C(c1ccccc1)N1CCCCC(Sc2nnnn2-c2ccccc2)C1=O (configuration not stated) | -21 | 108 | 113 | -12
CCCCC1(Cc2ccccc2)C(=O)Nc2ccccc2C1=O (configuration not stated) | -58 | 99 | 98 | 2
CCCCC(CC)CNc1nc(=S)[nH]c2ccccc12 (configuration not stated) | -39 | 103 | 103 | 8
Cc1ccc(CSc2nnc(-c3ccc(C)cc3)n2N)cc1 | 2 | 105 | 112 | -4
N#CCC(=O)N/N=C/c1ccccc1 | -1 | 106 | 108 | -2
Cc1ccc2c(c1)c1c(n2CC(O)CNCc2ccccc2)CCCC1 (configuration not stated) | -20 | 101 | 96 | 0
CN(C)C(=O)C(CCN1CCC(O)(c2ccccc2)CC1)(c1ccccc1)c1ccccc1 | -4 | 107 | 99 | x
O=C1c2ccccc2C(=O)N1/N=C/c1ccc(OC(F)F)cc1 | -14 | 105 | 102 | 3
CO[C@@H]1[C@H](OC(N)=O)C(O)[C@H](Oc2ccc3c(O)c(NC(=O)c4ccc(O)c(CC=C(C)C)c4)c(=O)oc3c2C)OC1(C)C (some centres not stated) | -7 | 101* | 102* | -4
O=C(Nc1ccccc1)Nc1ccc(I)cn1 | -27 | 100 | 101 | -10
CCOC(=O)c1c(-c2ccc(OC)cc2)csc1NC(=O)CSc1nnc2ccccn12 | -35 | 102 | 104 | -4
CC12C(=O)N(c3ccc(Br)cc3)C(=O)C1ON(c1ccccc1)C2c1ccccc1O (configuration not stated) | -9 | 99 | 102 | -6
CCCN(CC(=O)c1cc(C)n(C)c1C)S(=O)(=O)c1cccc(C(F)(F)F)c1 | -25 | 99 | 101 | 2
Cc1nc(SCC#N)c2c3c(sc2n1)CCCC3 | 0 | 100 | 101 | -2
COC(=O)Cn1c(C(O)c2ccccc2)nc2ccccc21 (configuration not stated) | -17 | 104 | 104 | -4
CSc1ccc(-c2cccs2)nn1 | -22 | 107 | 111 | 11
O=c1c2sccc2nc(SCc2ccccc2)n1CCc1ccccc1 | -9 | 104 | 108 | -8
N#Cc1ccc(Cl)cc1N=Cc1ccco1 | x | 102 | 104 | 0
CC1CC(=O)Nc2ccccc2S1 (configuration not stated) | -5 | 102 | 105 | 16
Cc1cc(C)c2c(n1)sc1c(=O)n(/N=C/c3ccccc3)cnc12 | 7 | 107 | 101 | -1
CCOC(=O)c1c(C)n(C)c2ccc(OC(=O)OC)cc12 | -16 | 104 | 103 | -43
COC(OC)c1nc(SCC(=O)Nc2ccc(C(C)C)cc2)ncc1C(=O)O | -1 | 101 | 109 | -11
CCc1ccc2c(c1)=C(c1[nH]c(=S)[nH]c1O)C(=O)N=2 | -47 | 102 | 103 | 7
O=C(COc1ccccc1)OCC(=O)N1CCCc2ccccc21 | -27 | x | x | -5
Cc1cc(C)nc(/N=C(/N)NO)n1 | 30 | 101 | 108 | 34
COCCn1c(C)cc(C(=O)COC(=O)c2cc(OC)c(OC)cc2OC)c1C | 0 | 107 | 100 | 12
O=C(CCOc1ccccc1F)N1CCc2ccccc21 | -17 | 96 | 97 | 9
O=C(Nc1ccn(Cc2ccccc2F)n1)Nc1ccc(F)cc1F | -28 | 99 | 102 | -8
O=S(=O)(c1ccc(OC(F)(F)F)cc1)N1CCCC(c2ccccc2)C1 (configuration not stated) | 5 | 102 | 103 | -10
O=C(/C=C/c1ccccc1)NC(=S)Nc1ccc(-c2nc3ccccc3o2)c(O)c1 | 0 | 101 | 105 | -19
C=CCC1C=C(C)CC(CC=C)N1CC(O)C(F)(F)C(F)(F)C(F)(F)F (configuration not stated) | -37 | 99 | 107 | -1
CC(=O)N(CC(C)C(=O)O)c1c(I)cc(I)c(N)c1I (configuration not stated) | -5 | 100 | 102 | -17
COc1cc(C2C(C(=O)Nc3ccccn3)=C(C)NC3=C2C(=O)CCC3)cc(OC)c1OC (configuration not stated) | -9 | 99 | 103 | 44
CS(=O)(=O)c1ccc(C(=O)OCc2ccccc2C#N)cc1 | -5 | 104 | 104 | 9
O=C(Cc1ccccc1)N/N=C/c1ccccc1C(=O)O | -3 | 100 | 105 | 2
Cc1cccc2c(=O)c(C(=O)NCc3cccs3)c[nH]c12 | 5 | 101 | 103 | -4
CC(=O)OCC1OC(n2ccc(=O)[nH]c2=O)C(OC(C)=O)C1OC(C)=O (configuration not stated) | 11 | 103 | 110 | x
C/C(=N\NC(=O)Cc1ccccc1)c1cccnc1 | 3 | 101 | 104 | -9
CC1(C)CC2CC(C)(CN2C(=O)c2cc3ncc(Br)cn3n2)C1 (configuration not stated) | 3 | 101 | 109 | -5
CC1(C)NN=C(N)SC1=O | 2 | 101 | 104 | 15
Cc1cccc(-c2nc(CS(=O)CC(=O)NCC3CCCO3)c(C)o2)c1 (configuration not stated) | -9 | 101 | 104 | 15
Cc1onc(C(=O)N(C)C)c1-c1ccnc(=S)[nH]1 | -23 | 95 | 101 | 0
CC(OC(=O)C1CCN(c2ccc(C(F)(F)F)cn2)CC1)C(=O)Nc1ccccc1F (configuration not stated) | 0 | 102 | 107 | 36
C[C@]1(C(=O)O)CCC[C@]2(C)c3cc(O)ccc3CC[C@@H]12 | -4 | 99 | 100 | x
FC(F)(F)c1cc(C#CCN2CCCCC2)cc(C(F)(F)F)c1 | -28 | 101 | 101 | -6
Cc1ccc2oc(C(=O)NCc3ccncc3)cc(=O)c2c1 | 3 | 100 | 102 | -1
CCSc1nnc(SCc2nc(N)nc(Nc3ccccc3C)n2)s1 | -24 | 112 | 114 | -3
Cc1c(Cl)cccc1NC(=O)c1ccco1 | 2 | 102 | 106 | x
CNC(=O)c1cncc(C(=O)NC)c1 | -13 | 107 | 110 | -10
COc1ccc(OCCOC(=O)/C(=C/c2cccs2)c2cccs2)cc1 | -46 | 101 | 107 | 1
CC(C)CNC(C)C(=O)Nc1ccc(S(N)(=O)=O)cc1 (configuration not stated) | -10 | 103 | 110 | -30
CCC(C(=O)O)n1cnc2ccccc2c1=O (configuration not stated) | 7 | 98 | 101 | 6
O=c1c(O)coc(CO)c1C(Nc1ccccn1)c1ccccc1O (configuration not stated) | -9 | 110 | 110 | x
CN(C)C(CNCc1ccc(-n2cnc3ccccc32)cc1)c1ccco1 (configuration not stated) | 32* | 101 | 95 | 5
CCc1ccc(Oc2c(CC(=O)O)oc3cc(O)c(CC)cc3c2=O)cc1 | -8 | 101 | 99 | -20
COc1ccc(CNC(=O)C2CCN(c3cc(C(=O)Nc4cccc(OC)c4)ccn3)CC2)cc1 | 6 | 101 | 104 | 64
CSc1ccccc1NC(=O)C1CCCC1 | -22 | 105 | 113 | -9
COc1ccc(CCNc2nc3c(c(C(F)(F)F)n2)CC(C)CC3)cc1OC (configuration not stated) | -15 | 100 | 107 | 45
Additional results:
SMILES | Mtb MenB inh | PV pol inh | PV pol inh intensity | MbtI inh
Cc1cc(NC(=O)CSc2nc3ccccc3c(=O)n2CCCN2CCC(C)CC2)n[nH]1 | -34 | 101 | 100 | -14
CC(=O)n1cc(/C=N/NC(=O)c2cccc(O)c2)c2ccccc21 | -21 | 101 | 101 | 15
CCOC(=O)c1c(C)[nH]c(C)c1C(=O)COC(=O)C1Cc2ccccc2CN1C(C)=O (configuration not stated) | 13 | 107 | 100 | 8
Oc1oc(-c2ccccc2)nc1C=Nc1cccnc1 | -53 | 101 | 100 | -2
COc1ccccc1-c1c(C)nn2c(N3CCc4ccccc43)cc(C)nc12 | -17 | 101 | 101 | 60
O=C1OC(c2ccccc2)Cc2ccccc21 (configuration not stated) | -2 | 103 | 98 | 8
CC(C)(C)c1ccc(Oc2ccc(NC(=O)c3ccccc3)cn2)cc1 | -11 | 105 | 99 | -7
N#Cc1c(SCC(N)=O)nsc1SCc1ccc(Cl)cc1 | -24 | 103 | 104 | x
CCN(CC(=O)NCC12CC3CC(CC(C3)C1)C2)Cc1nc2ccccc2c(=O)[nH]1 | -30 | 102 | 106 | -4
CN(C(=S)Nc1ccc(OC(F)F)cc1)C1CCCCC1 | -20 | 99 | 100 | 2
N#CC1(NC(=O)CSc2ccccc2F)CCCCC1 | -43 | 107 | 100 | 108
CCCCNS(=O)(=O)c1ccc(N)cc1 | -67 | 102 | 105 | -2
O=C(Oc1ccccc1)N1CCCC1 | -6 | 100 | 93 | -8
O=C1Nc2ccccc2/C1=N\N1CCN(Cc2ccc(Cl)cc2)CC1 | -60 | 101 | 105 | 14
CCNc1cc(N2CCN(c3ccccc3)CC2)c2noc3c2c1C(=O)c1ccccc1-3 | -13 | 126 | 171 | -7
CCCCc1nc(NCCO)c(C#N)c2c1CCCC2 | -21 | 100 | 102 | -349
CC(C(=O)N1c2ccccc2CCc2ccccc21)n1nnc(-c2ccc(N(C)C)cc2)n1 (configuration not stated) | -10 | 100 | 98 | 87
Cc1ccc(N(C(=O)c2ccc(Cl)cc2)C2C=CS(=O)(=O)C2)cc1 (configuration not stated) | x | 104 | 101 | -3
CC(=O)Nc1nc(C)cc2c1c(=O)oc1ccccc12 | -6 | 102 | 104 | -204
Nc1nonc1-c1noc(COc2c(F)c(F)cc(F)c2F)n1 | 11 | 101 | 102 | 17
CN(Cc1nnc(-c2ccccc2)o1)C(=O)Nc1ccc(F)cc1 | 7 | 101 | 104 | 6
CC(NC(=O)CCCn1c(=O)c2cccn2c2ccccc21)c1ccccc1 (configuration not stated) | -2 | 103 | 107 | -1
O=C(O)c1noc2c1CCCC2 | 30 | 100 | 103 | -1
CC(NC1CC(C)N(C)CC1C)c1ccccc1 (configuration not stated) | -40 | 104 | 104 | -4

Shown with two lines to a compound: part of the list above
Below each SMILES – Mtb MenB inh	PV pol inh	PV pol inh intensity	MbtI inh
> N#CC1(NC(=O)CSc2ccccc2F)CCCCC1
  -43	107	100	108
> CCCCNS(=O)(=O)c1ccc(N)cc1
  -67	102	105	-2
> O=C(Oc1ccccc1)N1CCCC1
  -6	100	93	-8
> O=C1Nc2ccccc2/C1=N\N1CCN(Cc2ccc(Cl)cc2)CC1
  -60	101	105	14
> CCNc1cc(N2CCN(c3ccccc3)CC2)c2noc3c2c1C(=O)c1ccccc1-3
  -13	126	171	-7
> CCCCc1nc(NCCO)c(C#N)c2c1CCCC2
  -21	100	102	-349
> CC(C(=O)N1c2ccccc2CCc2ccccc21)n1nnc(-c2ccc(N(C)C)cc2)n1 (configuration not stated)
  -10	100	98	87
> Cc1ccc(N(C(=O)c2ccc(Cl)cc2)C2C=CS(=O)(=O)C2)cc1 (configuration not stated)
  x	104	101	-3
> CC(=O)Nc1nc(C)cc2c1c(=O)oc1ccccc12
  -6	102	104	-204
> Nc1nonc1-c1noc(COc2c(F)c(F)cc(F)c2F)n1
  11	101	102	17
> CN(Cc1nnc(-c2ccccc2)o1)C(=O)Nc1ccc(F)cc1
  7	101	104	6
> CC(NC(=O)CCCn1c(=O)c2cccn2c2ccccc21)c1ccccc1 (configuration not stated)
  -2	103	107	-1
> O=C(O)c1noc2c1CCCC2
  30	100	103	-1
> CC(NC1CC(C)N(C)CC1C)c1ccccc1 (configuration not stated)
  -40	104	104	-4

Next records follow.
SMILES | Mtb MenB inh | PV pol inh | PV pol inh intensity | MbtI inh
Clc1nc(CN2CCCCC2)nc2sc3c(c12)CCC3 | -28 | 103 | 101 | -9
C/C(=N\O)c1sc2ccc(Cl)cc2c1C | -31 | 102 | 100 | -2
COc1ccccc1N1CCN(CCCCNS(=O)(=O)c2ccc(Cl)c(Cl)c2)CC1 | -13 | 103 | 106 | -10
Cc1ccc(Cn2c(=O)c3ccccc3n3c(SCC(=O)OC(C)(C)C)nnc23)cc1 | -6 | 99 | 100 | 10
Cc1nn(-c2ccccc2)c2c1C1C(=C(N)S2)C(=O)Oc2ccccc21 (configuration not stated) | -2 | 109 | 118 | x
CCn1c(C(C)N2CCCCC2)nc2ccccc21 (configuration not stated) | 0 | 101 | 103 | 8
CCn1ncc(NC(=S)NCCc2ccccc2)c1C(N)=O | 5 | 101 | 101 | 8
CCN(CC)S(=O)(=O)c1ccc2c(c1)n(C)c(=O)c(=O)n2C | -18 | 101 | 101 | 2
COc1ccc2c(CC(=O)OCc3cc(=O)oc4cc(OC)ccc34)coc2c1 | -6 | 102 | 108 | -79
Cc1cccc(Oc2coc3cc(OC(=O)c4cccs4)ccc3c2=O)c1 | -41 | 98 | 100 | 7
COc1ccc(C(=O)Nc2ccc(-c3nc4ccccc4o3)cc2)cc1OC | -29 | 100 | 101 | -22
O=C(COC(=O)c1cccc(N2C(=O)c3ccccc3C2=O)c1)NCc1ccco1 | -9 | 99 | 106 | -5
CCc1ccccc1NC(=S)N(CCc1ccncc1)C(C)C | -20 | 100 | 102 | -5
OCC(CO)(CO)NC(=S)Nc1ccc(F)c(Cl)c1 | 1 | 99 | 94 | 23
COc1cccc(OC(=O)N2CCOCC2)c1 | 13 | 100 | 102 | 6
CC(C(=O)NC1CC1)N(c1cccc(Cl)c1)S(C)(=O)=O (configuration not stated) | 7 | 101 | 100 | -16
Cc1cccc(-n2ncc3ccccc3c2=O)c1 | 3 | 108 | 110 | 0

Screening results as filed in PubChem.
